Assay outcomes (PubChem)
TRPML1 ag – qHTS for Agonists of the Human Mucolipin Transient Receptor Potential 1 (TRPML1); Mucolipin-1 (Homo sapiens), Q9GZU1; TRPML1-expressing cells, Ca2+ dye fluorescence, FDSS; host cell line not named in the record; reference of the full effect not given here; activation, % (no concentration beside the values); 410,000 tested, 0.12% active; in the data active = activation above about 50%; inconclusive = about 30% to 50%; inactive = below about 30%; further: 0% is about no effect; the text of the record puts the active cut at 80%
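Tetracycline-induced TRPML1-DL cells are seeded and incubated overnight before loading with a no-wash Ca2+ dye and quencher. Agonist activity is taken from the 110 s fluorescence read following compound pin-transfer on an FDSS, before EC80 54-4 challenge.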
D2 potentiator – Beta-Arrestin HTS for Positive Allosteric Modulators of the Human D2 Dopamine Receptor: Potentiators | D(2) dopamine receptor (Homo sapiens), P14416 | 360,000 tested, 0.23% active | AID 624464, 2012 | potentiation, % (concentration not given with the values) | DiscoveRx D2 beta-arrestin cells, luminescence, 90 min; 100% = 57 uM dopamine signal; active = potentiation of 50% or more; inconclusive = 30% to 50%; inactive = 30% or less;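 further: compound concentration not given in the record; tested on top of an EC20 dose of dopamine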
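D2 cells co-treated with compound plus 50 nM dopamine (EC20) for 90 min at 37 deg C to detect potentiation. Beta-arrestin recruitment was read as enzyme-fragment luminescence after 1 h at ambient temperature. Full response was set by 57 uM dopamine.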
D2 ag – Beta-Arrestin HTS for Positive Allosteric Modulators of the Human D2 Dopamine Receptor: Agonists. D(2) dopamine receptor (Homo sapiens), P14416. DiscoveRx PathHunter D2 beta-arrestin, luminescence, 90 min; 100% = 57 uM dopamine signal. activation, % (no concentration beside the values). 360,000 tested, 0.084% active. AID 624465, 2012; in the data active = activation above about 40%; inconclusive = about 15% to 40%; inactive = below about 15%; further: compound concentration not given in the record; the text of the record calls up to 30% inactive
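Agonist mode: compounds alone added to overnight-plated D2 PathHunter cells for 90 min at 37 C, with 57 uM final dopamine (EC100) defining full response. Beta-arrestin recruitment detected by chemiluminescent reagent, read after 1 h at ambient temperature.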
PINK1 expr mod – A Quantitative High throughput Screen to Identify Chemical Modulators of PINK1 Expression | Potency, µM (titrated, usually from 76.6 µM), for the others: at the highest dose activation (PINK1 increase), usual class: activators | PINK1 immunofluorescence, high-content cytometry, 24 h | AID 624263, 2012 | 410,000 tested, 0.2% active; active = well fitted activation curve with a large enough effect; inconclusive = small, poorly fitted or top-dose-only effect; inactive = flat fitted curve, though single readings scatter; cell line not stated here;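 further: potency means the concentration at half of the fitted maximal effect; % of control where 0% means no effect; nearly all actives have a fitted effect of over 65% in size; a mitochondrial uncoupler was the plate control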
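A stable cell line was treated with compounds at 5 concentrations for 24 hours, with CCCP as control. PINK1 levels and mitochondrial localization were measured by immunofluorescence with mitochondrial, cell and nuclear markers after fixation, read by laser-scanning cytometry.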
CtBP-E1A blk – qHTS Assay for Inhibitors of the CtBP/E1A Interaction; CtBP / adenovirus E1A interaction (AlphaScreen); AlphaScreen GST-E1A/His-CtBP binding, 1536-well; stronger effect = lower value; control for the full effect not named in the record; 340,000 tested, 0.49% active; activity change, % (concentration not given with the values); AID 651724, 2012; in the data active means activity change below about -65%; inconclusive means about -30% to -65%; inactive means above about -30%; further: on the % scale 0 is the no-effect control and ±100 the full control effect
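In 5 uL wells, 23 nL compound meets equimolar GST-E1A and His-CtBP (5X stock 125 nM each) for 2 h, 37 °C. Beads (5X, 50 ug/mL) then 1 h, 37 °C, dark.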
Six1-Eya2 blk – qHTS Assay for Inhibitors of the Six1/Eya2 Interaction; AlphaScreen GST-Six1/His-Eya2 binding, biochemical; stronger effect = lower value; control for the full effect not named in the record; activity change, % (concentration not given with the values); 360,000 tested, 0.56% active; in the data active = activity change below about -65%; inconclusive = about -30% to -65%; inactive = above about -30%; further: on the % scale 0 is the no-effect control and ±100 the full control effect
Target sequence (O00167 whole entry, looked up): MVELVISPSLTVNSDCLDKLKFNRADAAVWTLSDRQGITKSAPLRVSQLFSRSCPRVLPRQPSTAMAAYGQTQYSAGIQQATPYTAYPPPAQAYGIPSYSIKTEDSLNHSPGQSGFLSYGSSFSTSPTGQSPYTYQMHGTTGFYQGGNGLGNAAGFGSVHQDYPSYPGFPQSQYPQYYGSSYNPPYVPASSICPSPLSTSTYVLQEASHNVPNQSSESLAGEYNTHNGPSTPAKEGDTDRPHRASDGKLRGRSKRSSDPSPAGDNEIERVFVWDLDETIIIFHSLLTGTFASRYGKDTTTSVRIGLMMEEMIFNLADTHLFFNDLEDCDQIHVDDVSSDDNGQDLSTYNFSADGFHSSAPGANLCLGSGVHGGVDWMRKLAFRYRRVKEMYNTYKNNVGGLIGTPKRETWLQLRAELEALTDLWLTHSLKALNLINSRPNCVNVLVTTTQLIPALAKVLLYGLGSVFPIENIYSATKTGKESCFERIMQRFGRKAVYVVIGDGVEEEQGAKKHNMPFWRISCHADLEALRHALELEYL
Target sequence (Q15475 whole entry, looked up): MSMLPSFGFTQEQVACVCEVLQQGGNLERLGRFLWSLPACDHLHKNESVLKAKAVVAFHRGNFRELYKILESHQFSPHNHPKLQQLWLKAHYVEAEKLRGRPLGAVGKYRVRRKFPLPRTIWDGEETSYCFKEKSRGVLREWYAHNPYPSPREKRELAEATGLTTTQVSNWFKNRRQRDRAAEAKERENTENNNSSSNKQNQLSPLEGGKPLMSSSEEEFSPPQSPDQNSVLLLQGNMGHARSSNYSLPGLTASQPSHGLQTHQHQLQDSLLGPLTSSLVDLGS
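Six1/Eya2 binding was read as AlphaScreen signal after compounds were pinned into GST-Six1 plus His-tagged Eya2 (5X stock 250/500 nM) in pH 8.0 Tris/NaCl/TCEP buffer, beads added, then incubated 1 h, 37 C, dark.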
Numbers without * were called inactive; u = inconclusive; x = no result given; & = joins results of further samples; [ ] = remark or other dose.

SMILES	TRPML1 ag	D2 potentiator	D2 ag	PINK1 expr mod	CtBP-E1A blk	Six1-Eya2 blk
O=C(CSc1ncnc2sc3c(c12)CCC3)NCC1CCCO1 (configuration not stated)	-0.6	-10	-1.1	0.7%	4	1
CCN1C(=O)[C@H]2[C@@H](c3ccc(-c4ccc(Cl)c(Cl)c4)cc3)N3CCCC[C@@]3(C(=O)OC)[C@H]2C1=O	-0.1	-4	-1.4	2.9%	2	-6
Cc1ccc(O)c(N=Cc2cc(Cc3ccccc3)cc([N+](=O)[O-])c2O)c1	0.8	-26	-8.2	-0.3%	-3	-21
COc1cc2nc(Nc3cccc(F)c3)nc(N)c2cc1OC	-1.4&0.2	-4	3.2	-4.3%&-1.3%	-28	u
CCN1C(=O)/C(=C/c2cccs2)SC1=Nc1ccc(OC)cc1	0.6	-12	-1.8	0.9%	3	3
O=C(Nc1ccccc1C(=O)O)c1ccc(NC(=O)C2CC2)cc1	2.1	4	1.0	4.7%	u	-81*
COc1ccc([C@H]2/C=C\CN(C(=O)[C@H](Cc3ccccc3)NC(=O)OCC3c4ccccc4-c4ccccc43)CC(=O)N2Cc2ccc(F)cc2)cc1	0.9	-4	-2.1	0.2%	4	6
CCCCCOC(=O)C1=C(C)NC(=O)NC1c1ccc2c(c1)OCO2 (configuration not stated)	-0.2	4	-0.1	-1.1%	0	-12
COC(=O)/C(=N\OCc1ccc(C#N)cc1)c1c(C)nn(C)c1C	-0.3	-7	-2.2	-0.6%	4	-3
Cc1c(/C(O)=C2\C(=O)C(=O)N(CCCN(C)C)C2c2ccccc2)cnn1-c1ccccc1 (configuration not stated)	-0.1	8	-0.9	-2.4%	-18	3
CC(=O)Cc1nsc(NC(=O)c2ccccc2Cl)n1	-0.6	-8	-16	1.1%	-10	-1
COc1ccc(-c2cccc(NC(=O)c3ccc4c(c3)OCO4)c2)nn1	-0.5	0	2.8	0.4%	0	-6
CCOC(=O)C1=NOC(CN(c2ccccc2)S(=O)(=O)c2ccc(Cl)cc2)C1 (configuration not stated)	-0.2	-3	-1.2	1.9%	6	8
O=C(COCC(=O)NCc1ccccc1)NCc1ccccc1	-0.2	-2	2.3	1.5%	6	13
O=c1oc2ccccc2c(Nc2ccc3ccccc3c2)c1[N+](=O)[O-]	0.6	-5	-5.3	3.2%	-4	-8
COc1ccc(CCNC(=O)C(=O)NCCC2CCCCN2S(=O)(=O)c2cccs2)cc1 (configuration not stated)	0.4	-12	12	0.3%	9	-20
CCc1ccc(Nc2cnn(C34CC5CC(CC(CC(=O)O)(C5)C3)C4)c(=O)c2Cl)cc1	-0.1	-3	-6.2	-1.4%	5	10
CC(=O)N1CCN(c2ccc(NC(=O)c3ccc4c(c3)OCO4)cc2)CC1	-0.1	9	-1.7	-2.0%	4	0
Cc1cc(C)c(S(=O)(=O)N2CCN=C2c2ccccc2)c(C)c1	1.1	-7	0.7	0.5%	6	13
COC(=O)c1ccc(NC(=O)c2ccc(C)cc2)o1	0.3	-7	-4.6	1.4%	-3	-11
Cc1ccc(S(=O)(=O)N2C[C@H]3N(C(=O)OC(C)C)N(C(=O)OC(C)C)C[C@H](OC(=O)NCc4ccccc4F)[C@@]3(O)C2)cc1	-0.4	0	-8.7	0.2%	2	1
Cc1ccc(SCCNC(=O)c2ccc(C)c(S(=O)(=O)Nc3cccc(C)c3)c2)cc1	2.1	-4	-0.5	x	44	13
CCCC(=O)NC(C)C(c1cccs1)N1CCN(c2ccccc2)CC1 (configuration not stated)	0.2	-8	-0.5	1.5%[38.3 µM]	1	-1
Cc1ccc(C(=O)NCc2ccc(N3CCN(C)CC3)cc2)cc1C	1.7	-14	-15	-3.6%	1	-3
COc1ccccc1-n1c(SCC(=O)Nc2ccc(F)cc2)nc2c(c1=O)SCC2	0.2	2	5.5	0.0%	-8	-14
CC(C)C(=O)N1CCN(c2nc3ccc(Cl)cc3s2)CC1	0.2	-4	7.9	-0.9%	x	1
Cc1cc(C)n(-c2nncn2NC(=O)c2ccc(Cl)cc2O)n1	-0.6	6	-0.5	2.6%	9	3
O=P(OC1CCS(=O)(=O)C1)(c1ccccc1)c1ccccc1 (configuration not stated)	-0.3	-4	-1.1	0.6%	6	1
Cc1nc(NC(=O)c2ccccc2)sc1C1(C)CC(c2ccccc2F)=NO1 (configuration not stated)	1.5	-5	0.8	2.6%	-13	-6
CC(=O)N[C@H]1[C@H](Oc2ccc3c(c2)CCC2C3CC[C@]3(C)C(=O)CCC23)O[C@H](CO)[C@@H](O)[C@@H]1O (some centres not stated)	0.9	-10	-2.3	-1.1%	-3	2
Cc1cccc(C)c1Nc1nnc(SCC(=O)NCc2cccs2)s1	-0.5	11	-1.2	2.9%	-1	1
Cc1cccc(C(=O)N2CCN=C2SCc2ccc([N+](=O)[O-])cc2)c1	-0.8	-2	-2.8	0.4%	-2	-6
NC(=O)C[n+]1cccc(C(=O)Nc2ccccc2)c1	0.8	-11	-4.0	0.1%	-8	10
Cc1cc(C(=O)CSc2nc3ccccc3n2C)c(C)n1C	4.3	-16	-3.6	0.1%	-18	-9
O=C(COc1ccc(Br)cc1Br)NC(=S)N1CCCc2ccccc21	1.1	-16	-3.0	1.0%[38.3 µM]	-1	-16
COC(=O)CN1C(=O)[C@H]2[C@@H](/C=C/c3ccccc3)N3C(=O)CN(Cc4ccccc4)C(=O)[C@@]3(Cc3ccccc3)[C@H]2C1=O	0.7	2	0.3	0.1%	0	19
O=C(Cn1cnc2c(cnn2-c2ccc(Cl)cc2)c1=O)NCCc1ccccc1	-0.4	5	-2.3	0.5%	0	-1
CC1(C)NC(=O)N(CC(O)COc2ccccc2C(=O)Nc2ccccc2)C1=O (configuration not stated)	-0.3	-18	-1.9	x	7	2
Cc1ccc(C)c(S(=O)(=O)C(C#N)c2nc3ccccc3nc2N2CC(C)OC(C)C2)c1 (configuration not stated)	-0.1	7	0.2	u	9	-1
C[C@H](C(=O)O)c1cccc(C(=O)c2ccccc2)c1	-0.7	-2	-3.4	1.6%	2	5
CN(C)S(=O)(=O)c1cccc(-c2nnc(-c3ccccc3)o2)c1	-0.4	0	-0.7	11%[38.3 µM]	-9	-9
Oc1ccccc1CNCCCNCc1ccccc1O	-1.4	-12	0.4	0.8%	2	3
CCOC(=O)[C@@H]1[C@H]2COc3cc(OC)ccc3[C@H]2N2C(=O)N(c3ccc(C(F)(F)F)cc3)C(=O)[C@]12C	-0.4	-35	0.6	40µM*	-1	-3
CCn1c2ccccc2c2nnc(SCC(=O)Nc3cc(C)on3)nc21	-0.3	0	1.0	x	-6	-3
Cc1cc(C)nc(SCC(=O)c2ccc(O)cc2O)n1	-1.3	-6	-3.7	1.1%	-3	-3
NC(=S)NNC(=O)C12CC3CC(CC(C3)C1)C2	17	-3	-1.4	-0.2%	0	2
COc1cccc(C(NC(C)=O)c2nc(-c3cccc(NC(C)=O)c3)cs2)c1 (configuration not stated)	-0.3	-9	4.9	0.1%	2	6
Cc1c(C)c2cc(Cl)c(OCC(=O)NC3CC(C)(C)NC(C)(C)C3)cc2oc1=O	-0.5	-9	-4.6	-1.1%	5	-1

One compound at a time, from the list above. Screens in order: TRPML1 ag, D2 potentiator, D2 ag, PINK1 expr mod, CtBP-E1A blk, Six1-Eya2 blk
Cc1cc(C)nc(SCC(=O)c2ccc(O)cc2O)n1 is listed as -1.3, -6, -3.7, 1.1%, -3, -3
Cc1c(C)c2cc(Cl)c(OCC(=O)NC3CC(C)(C)NC(C)(C)C3)cc2oc1=O is listed as -0.5, -9, -4.6, -1.1%, 5, -1
Oc1ccccc1CNCCCNCc1ccccc1O is listed as -1.4, -12, 0.4, 0.8%, 2, 3
NC(=S)NNC(=O)C12CC3CC(CC(C3)C1)C2 is listed as 17, -3, -1.4, -0.2%, 0, 2
Cc1ccc(C)c(S(=O)(=O)C(C#N)c2nc3ccccc3nc2N2CC(C)OC(C)C2)c1 (configuration not stated) is listed as -0.1, 7, 0.2, u, 9, -1

Continuation:
SMILES	TRPML1 ag	D2 potentiator	D2 ag	PINK1 expr mod	CtBP-E1A blk	Six1-Eya2 blk
O=C(CN1CCC(NC(=O)c2ccccc2F)CC1)Nc1ccc2c(c1)OCO2	0.8	-7	-3.2	0.1%	-21	0
CC(=O)Nc1ccc(NC(=O)c2cccc3ccccc23)cc1	0.2	1	u	3.1%	7	16
Brc1ccc(OCCCCCN2CCOCC2)cc1	-0.1	-6	1.1	1.8%	12	4
CCOc1ccc(NC(=O)c2cnc3scc(C)n3c2=O)cc1	-0.3	0	-6.3	-0.7%	5	9
COCC(=O)Nc1nnc(Cc2ccc(OC)c(OC)c2)s1	-0.4	-4	-4.7	1.9%	9	-2
CC(C)CCN(C(=O)c1csnn1)C(C(=O)NC1CCCC1)c1ccc(F)cc1 (configuration not stated)	0.2	-6	-3.7	5.7%	8	11
CCOc1ccc2nc(NC(=O)CC3Oc4ccccc4NC3=O)sc2c1 (configuration not stated)	-0.6	-14	-5.0	7.9%	x	0
Cc1cccc(C(=O)O/N=C/c2c(Cl)n(C)c3ccccc23)c1	-0.5	5	-2.3	4.2%	14	12
CCn1c(=O)c(C(=O)NNS(=O)(=O)c2ccc(Br)cc2)c(O)c2ccccc21	1.7	-14	-5.8	8.0%	6	-10
CCCc1cc(=O)oc2cc(C)cc(OCC(=O)NC3CCN(Cc4ccccc4)CC3)c12	-0.3	-16	-14	4.5%	x	1
COc1ccc(OCCC(=O)OCC(=O)NC2CCCCCCC2)cc1	0.7	-5	-0.4	2.2%	3	-2
O=C(O)c1ccccc1Oc1ccc(Oc2ccccc2)cc1	-0.1	-2	-8.1	3.6%	10	5
CCC(Oc1ccccc1)C(=O)N1CCN(CC)CC1 (configuration not stated)	0.5	-18	-3.4	-0.8%	43	21
COCCNC(=O)CN1C(=O)COc2ccc(S(=O)(=O)N3CC(C)CC(C)C3)cc21 (configuration not stated)	0.4	5	1.5	1.6%	6	2
O=C(CN1C(=O)S/C(=C/C=C/c2ccccc2)C1=O)Nc1ccc(C(=O)O)cc1	-0.8	-9	3.2	0.8%	-8	-6
COCCN(CC(=O)Oc1ccccc1P(=O)(OC)OC)Cc1ccccc1	0.4	-6	-4.9	-0.9%	-4	5
O=C(OC1CCCCC1)c1ccc(NC(=O)c2ccco2)cc1	1.2	-7	2.4	16%	7	6
CC(C)=CCc1c2c(c3occ(-c4ccc(O)c(O)c4)c(=O)c3c1O)C=CC(C)(C)O2	0.3	11	4.2	-0.2%	-1	-28
